Compound activity as filed in PubChem BioAssay.
Ecoli growth: E. coli growth inhibition, primary screen, OD600; Escherichia coli growth, 23 h; hits give low values; OD600 absorbance (no concentration beside the values); actives 0.21% (n = 330,000); AID 1053175, 2014;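 active means OD600 absorbance below the run mean of sample wells minus 3.6 SD, in any replicate, cut at about 0.56 in these data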;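 further: stock transfer was 300 nL into about 60 µL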
Beta2AR agonist: beta2AR agonists driving receptor internalization, primary screen, cell-based, FAP fluorogen, flow cytometry; Beta-2 adrenergic receptor (Homo sapiens), P07550; response, % (concentration not given with the values); Am2.2-beta2AR cells; reference of the scale not given here; AID 504454, 2011; actives 0.43% (n = 340,000);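 active means response above a set limit, near 3 SD of response in nonfluorescent compounds, cut at about 42% in these data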;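 further: stock transfer was 100 nL into about 11 µL; a reference agonist was the positive control; negative values mostly stem from fluorescent compounds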
LANA-H2B inh: blockers of LANA interaction with H2A/H2B – biochemical, FP readout, HTS, primary screen; cell-free LANA-H2A/H2B peptide, fluorescence polarization; inhibition, % (test concentration not listed); actives 0.6% (n = 320,000); in the data active means inhibition mostly above about 10%, no sharp cut-off; inactive means mostly below about 6.7%;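 further: stock transfer was 7.5 nL into about 10 µL; 0% = median of vehicle wells and 100% = median of positive control wells; one replicate is shown; the record names a cut of 25% in any replicate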
Target sequence (Q9QR71 whole entry, looked up): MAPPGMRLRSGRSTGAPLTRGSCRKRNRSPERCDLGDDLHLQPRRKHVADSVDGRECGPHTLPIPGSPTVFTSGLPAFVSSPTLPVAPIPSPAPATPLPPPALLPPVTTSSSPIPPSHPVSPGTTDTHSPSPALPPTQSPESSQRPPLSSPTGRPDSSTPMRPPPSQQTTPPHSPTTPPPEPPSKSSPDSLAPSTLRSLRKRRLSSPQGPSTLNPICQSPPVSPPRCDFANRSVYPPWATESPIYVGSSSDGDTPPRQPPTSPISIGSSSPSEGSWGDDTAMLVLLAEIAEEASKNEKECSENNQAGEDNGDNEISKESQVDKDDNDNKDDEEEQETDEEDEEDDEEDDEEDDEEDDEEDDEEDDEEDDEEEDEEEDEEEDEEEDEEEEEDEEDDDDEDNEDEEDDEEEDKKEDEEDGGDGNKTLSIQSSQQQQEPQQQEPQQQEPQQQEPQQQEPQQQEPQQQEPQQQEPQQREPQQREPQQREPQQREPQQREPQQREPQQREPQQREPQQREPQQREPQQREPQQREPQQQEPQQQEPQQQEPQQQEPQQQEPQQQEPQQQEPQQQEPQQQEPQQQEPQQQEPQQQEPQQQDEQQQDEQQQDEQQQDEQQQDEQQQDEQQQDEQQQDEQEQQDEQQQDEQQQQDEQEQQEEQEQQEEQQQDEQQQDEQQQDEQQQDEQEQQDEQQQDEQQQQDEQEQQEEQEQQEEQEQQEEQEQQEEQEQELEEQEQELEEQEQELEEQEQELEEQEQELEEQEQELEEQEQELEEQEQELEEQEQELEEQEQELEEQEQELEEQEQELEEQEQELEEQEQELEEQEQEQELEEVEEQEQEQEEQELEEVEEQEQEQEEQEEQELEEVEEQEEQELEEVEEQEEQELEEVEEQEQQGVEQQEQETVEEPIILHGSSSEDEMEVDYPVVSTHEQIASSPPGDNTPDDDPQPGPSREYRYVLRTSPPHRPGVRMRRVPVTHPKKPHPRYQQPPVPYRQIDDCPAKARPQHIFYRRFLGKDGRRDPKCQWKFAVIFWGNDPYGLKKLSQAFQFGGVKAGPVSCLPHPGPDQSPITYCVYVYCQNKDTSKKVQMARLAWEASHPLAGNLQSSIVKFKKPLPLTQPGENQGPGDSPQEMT
FGF22 binding: binders of human FGF22 protein, primary screen, FGF22 synaptogenesis inhibitor project, biophysical, thermal shift, single point | calls only at 9.99 µM | AID 651658, 2012 | recombinant FGF22 thermal shift, SYPRO orange fluorescence; percent of sucrose octasulfate shift, DMSO zero | actives 1.5% (n = 340,000) | Fibroblast growth factor 22 (Homo sapiens), Q9HCT0;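 active means melting point raised past a set limit in the mean and every replicate; inconclusive means no clear call; three in four hits are not shown here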
HNF4A DNA FP: change in binding of human HNF4A to DNA, primary screen, biochemical, fluorescence polarization, FITC-DNA; Hepatocyte nuclear factor 4-alpha (Homo sapiens), P41235; 1 h; activity change, % at 10 µM; actives 0.3% (n = 360,000); AID 1224865, 2016; in the data active means activity change above about 30%, passing the limit was not always enough;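 further: controls were the assay level and a saturating level of protein; the project sought stronger binding though the title names inhibitors; some compounds called inactive have numbers as strong as hits; positive values seem to mean higher polarization but the record does not say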
UCH37 DUB inh: inhibitors of human UCH37 deubiquitinase, primary screen, biochemical, Ub-AMC cleavage, fluorescence. purified proteasome/UCH37. actives 0.33% (n = 330,000). inhibition, % (concentration not given with the values);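 active means mean of two replicates above 20%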;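 further: 0% = compound-free wells with enzyme and 100% = wells lacking proteasome; stock transfer was 100 nL into about 20 µL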
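Schedule: 30 min plus 25 min, room temperature / Material: human UCH37 within purified proteasomes / Technique: AMC fluorescence intensity at 355/460 nm / Buffer or medium: pH 7.4 Tris-HCl (50 mM) with ovalbumin, ATP-MgCl2, DTT / Controls: wells without proteasome as full block, compound-free enzyme plus substrate as uninhibited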
ALR inh: inhibitors of human ALR sulfhydryl oxidase, primary screen, biochemical, H2O2 detection, HRP-luminol luminescence, single point; actives 3.8% (n = 290,000); purified ALR, DTT oxidation; FAD-linked sulfhydryl oxidase ALR (Homo sapiens), P55789; inhibition, % (no concentration beside the values);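 active means mean and each replicate at 75% or more; inconclusive means only one of the two met; inactive means neither met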;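 further: stock transfer was 7.5 nL into about 7.5 µL; 0% = neutral wells and 100% = wells with inactivated enzyme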
* marks the source's active call; other numbers are inactive results; i = inactive; ? = inconclusive; . = not tested or not shown; & = joins results of further samples.

SMILES	Ecoli growth	Beta2AR agonist	LANA-H2B inh	FGF22 binding	HNF4A DNA FP	UCH37 DUB inh	ALR inh
COCCCNC(=O)c1ccccc1SC	0.67	0	1.7	i	-3.6	-1.3	-1
CC(C)Oc1ccc(/C(O)=C2/C(=O)C(=O)N(CCCn3ccnc3)C2c2cccnc2)cc1 (stereo unspecified)	0.71	-14	-1.0	i	0.6	7.1	-1
COc1cc(CC(=O)NCC(C)(C)N2CCOCC2)cc(OC)c1OC	0.66	1	-6.9	i	0.6	0.7	1
CCNC(=O)NC(=O)CSc1ccc(S(=O)(=O)N2CCCCC2)cn1	0.67	-5	-9.9	i	0.5	1.4	4
O=C(O)c1cccc(C(=O)Cc2ccccc2)c1	0.67	-6	-3.7	.	2.9	-0.3	3
Cc1c(/C=N/NC(=O)c2ccc3c(c2)OCO3)cnn1C	.	-5	-2.5	.	1.9	.	-5
COc1ccc(C(=O)Nc2ccnn2C2CCN(C3CCC3)CC2)cc1	0.7	2	4.1	i	2.7	6.7	1
O=C(NCc1ccccn1)C(=O)Nc1cc2c3c(c1)CC(=O)N3CCC2	0.68	-3	7.1	i	-1.1	5.9	-1
CC1CCCN(C(=S)Nc2ccc(F)cc2)C1 (stereo unspecified)	0.68	1	1.3	i	5.4	1.4	-2
CCOC(=O)C1C(c2ccccc2O)NC(=O)NC1(O)C(F)(F)F (stereo unspecified)	0.72	3	1.5	i	-1.2	-0.8	.
O=C(CSc1ccc([N+](=O)[O-])cn1)Nc1ccc(N2CCOCC2)cc1	0.69	-5	3.8	i	-0.8	4.3	.
CCN1C(=O)[C@H]2[C@@H](c3ccc(-c4ccc(C(C)=O)cc4)cc3)N[C@@](Cc3ccccc3)(C(=O)OC)[C@H]2C1=O	.	8	4.6	i	2.1	0.4	-3
CSc1ccc(-c2sc(Nc3ccccc3)n[n+]2-c2ccccc2)cc1	.	-21	4.9	.	-2.0	2.6	0
CCN=C1S/C(=C\c2cn(CC(=O)NCc3ccco3)c3ccccc23)C(=O)N1CC	0.66	13	9.0	i	14	-24	.
O=C(NCCOc1ccccc1)c1cc(S(=O)(=O)N2CCOCC2)ccc1F	0.73	-2	.	i	3.3	4.9	-13
COc1cc(-c2noc(C3CCCN(S(=O)(=O)c4cccc(Cl)c4)C3)n2)cc(OC)c1OC (stereo unspecified)	0.69	11	-1.4	.	-1.1	0.4	1
Cc1ccc2c(c1)N1C(=O)c3ccccc3C1C1=C(CC(C)(C)CC1=O)N2 (stereo unspecified)	0.74	0	-0.3	.	-1.2	4.4	9
COc1ccc(CN2CCNC(=O)C2CC(=O)NCCc2nc(C)c3c(n2)CCC3)cc1C (stereo unspecified)	0.69	-2	5.3	i	3.0	-1.8	6
Cc1ccc(NC(=O)C2CC(=O)n3ncnc3N2)cc1 (stereo unspecified)	0.73	3	0.6	i	3.4	1.8	4
CCc1ccc(S(=O)(=O)NCCOc2cccc3cccnc23)cc1	0.66	-4	5.1	i	0.9	0.9	-7
COc1ccc(OC(=O)c2ccc3nsnc3c2)cc1	0.77	-3	7.3	.	-3.0	4.5	.
CCC12CCCN3CCC4(C(=C(C(=O)OC)C1)Nc1ccccc14)C32 (stereo unspecified)	0.71	-4	.	.	-3.3	0.9	.
O=C(CSc1nnnn1C1CCCC1)N1CCOCC1	0.66	-11	0.3	i	-1.9	3.6	.
Cc1cccc(NC(=O)c2cccc(NC(=O)c3ccccc3)c2)n1	0.7	8	-1.7	i	-1.4	2.9	.
CCOc1ccc(C2C(C#N)=C(C)NC3=C2C(=O)c2ccccc23)cc1 (stereo unspecified)	0.73	-12	0.5	.	3.0	3.7	-11
CCCn1c(SCC(=O)NNC(=O)c2ccc(OC)cc2)nnc1C(C)C	0.66	7	-0.1	i	-2.1	0.4	1
COc1ccc(CCNC(=O)C2CCN(S(=O)(=O)c3ccc(F)cc3)CC2)cc1	0.67	-3	-3.0	i	2.4	1.1	.
CCn1cc(CN(C)S(=O)(=O)c2ccc3ccccc3c2)c(C)n1	0.7	-5	6.9	.	3.8	3.2	-2
CCOC(=O)c1c(C)[nH]c(C)c1C(=O)COC(=O)c1cccc(S(=O)(=O)NC)c1	0.7	-4	0.0	.	1.1	-0.1	8
CC(=O)Nc1ccc(NC(=O)[C@@H]2CCCC[C@@H]2C(=O)O)cc1	.	-2	0.4	i	-0.5	1.8	-14
CC(C)(C)C(=O)Nc1ccccc1C(=O)NCCC(=O)Nc1ccccc1	0.68	2	7.2	i	-1.7	3.0	.
CN1CCN(C(=S)NC(=O)/C=C/c2cccc3ccccc23)CC1	0.66	4	5.1	.	-1.7	3.8	-1
O=S(=O)(Nc1ccc(N2CCOCC2)cc1)c1ccc2ccccc2c1	0.69	8	.	.	-1.4	2.9	.
CCOc1ccccc1N(CC(=O)NC1CCCCC1)C(=O)c1nsc(Cl)c1Cl	0.69	-9	-1.1	i	-4.2	1.1	1
O=C(CSc1nnc([C@@H]2CCCN2)o1)c1ccc(Cl)cc1	0.65	-5	7.4	.	0.3	3.9	61
CCCCCCCSc1nc(N)cc(=O)[nH]1	0.71	0	-8.8	.	1.7	0.5	-5
COc1ccccc1C1CC(c2cccs2)=Nc2ccccc2S1 (stereo unspecified)	0.79	7	2.6	.	-2.4	2.8	-7
O=Cc1ccc2cccnc2n1	0.68	3	7.9	i	-5.3	3.1	.
Cc1c(C(=O)O)oc2c1/C(=N\O)CC(C)(C)C2	.	0	-1.8	i	-2.9	.	1
CCCC(=O)NC(=S)Nc1ccc(CN2CCOCC2)cc1	0.64	-4	-0.9	i	-3.0	1.0	-5
O=C(Cc1ccccc1)NCC(=O)N1CCN(c2ccccc2)CC1	0.71	1	0.5	i	1.3	0.9	66
COC(=O)c1cncc(C)c1	0.63	0	-0.1	i	1.7	2.4	-3
CC1CCCN(c2ccc3nc4ccccc4c(=O)n3n2)C1 (stereo unspecified)	0.69	-16	0.0	i	1.7	-0.9	.
O=S1(=O)CCOC[C@H](Cc2ccccc2)N1Cc1ccc(Cl)cc1	.	9	-0.5	.	-0.8	3.1	-4
CC(=O)c1cccc(NC(=O)CN2C(=O)NC(C)(c3ccc4c(c3)OCCCO4)C2=O)c1 (stereo unspecified)	0.66	0	-9.7	i	-2.7	2.4	-6
CN(/N=C/c1cc([N+](=O)[O-])ccc1O)c1ccccc1	.	2	0.5	i	4.5	.	-4
CC(=O)c1ccc(N2CCN(c3ncc(C(F)(F)F)cc3Cl)CC2)cc1	0.73	-859	1.6	.	0.5	-0.8	-3
CN(C(=O)c1cccc(NC(=O)Cc2ccc(NC(=O)C3CCN(C(=O)C4CCC4)CC3)cc2)c1)C1CCC1	0.7	-13	.	i	-1.4	1.0	.
CCCCn1c(-c2ccc([N+](=O)[O-])cc2)n[nH]c1=S	0.72	5	4.7	.	4.3	0.8	?
O=C1CNC(=S)N1CCc1ccc(Cl)cc1	0.69	-2	1.3	i	3.8	3.4	-7
CCC(C)c1ccc(OCc2ccc(C(=O)O)o2)cc1 (stereo unspecified)	0.67	2	7.1	i	-0.1	-1.6	11
COc1cccc(OC)c1OCCNCC1CSc2ccccc2O1 (stereo unspecified)	0.68	-4	-5.7	i	3.0	3.6	4
CC(C)(C)OC(=O)NCCCC(CCCNC(=O)OC(C)(C)C)C(=O)O	0.72	-31	-2.3	.	-0.9	-1.1	-8
CN(C)S(=O)(=O)c1cc(NC(=O)COC(=O)CCSc2ccc(Cl)cc2)ccc1Cl	0.67	-9	2.0	.	0.0	1.9	3
O=c1[nH]c(-c2ccc(F)cc2)nc2c1sc(=S)n2-c1ccccc1	0.77	18	-3.7	i	-0.5	3.9	-9
CCc1ccc(OCC(=O)N/N=C(\C)c2ccc(OC(F)F)cc2)cc1	.	4	-6.6	i	1.8	.	-7
CCOC(=O)C(CCCCOc1ccc([N+](=O)[O-])cc1)C(=O)OCC	0.75	10	6.6	i	3.5	4.1	-9
CC(=O)N1CCN(c2ncnc3ccccc23)CC1	0.65	0	-0.8	i	-4.1	2.2	1
COc1ccc(CC(NC(C)=O)C(=O)N2CCN(C(=O)Nc3cccc(F)c3)CC2)cc1OC (stereo unspecified)	0.71	3	6.9	i	-1.4	1.3	0
COc1ccc(CCNC(=O)/C(C#N)=C2\N=C(NC(=O)c3ccco3)c3ccccc32)cc1	0.71	32	-3.5	.	9.3	8.5	-1

Remaining list, next part
SMILES	Ecoli growth	Beta2AR agonist	LANA-H2B inh	FGF22 binding	HNF4A DNA FP	UCH37 DUB inh	ALR inh
CSCCC(C(=O)N1C[C@]2(C)C[C@H]1CC(C)(C)C2)N1C(=O)c2ccccc2C1=O (stereo partly specified)	0.72	6	-8.0	.	-1.2	0.1	-7
COc1ccccc1Nc1cc(C(=O)NCCCN2CCOCC2)c2ccccc2n1	0.75	3	-3.3	i	2.1	9.4	50
Cn1c(=O)n(CC(=O)O)c(=O)c2c1nc1n2CCS1	0.66&0.69	0&-3	1.7&-15	i	10&-4.1	2.6&2.4	-13&-2
Cc1cc2c3c([nH]c2cc1S(=O)(=O)NCc1ccc(CN2CCCCCC2)o1)CC(C)(C)CC3=O	0.67	1	-1.7	i	4.4	-0.6	-2
COc1ccc(C)cc1NC(=O)c1ccc(NS(=O)(=O)c2cccc3cccnc23)cc1	0.74	11	4.8	i	-1.5	3.2	-1
Cc1c(C(=O)N2CCCCCC2)c(S(=O)(=O)NCc2ccccc2Cl)c(C)n1C	0.7	-2	-3.6	i	3.7	-0.2	-9
Cc1ccc(-c2[nH]nc3c2C(c2ccccc2OC(=O)N2CCOCC2)C(C#N)=C(N)O3)cc1 (stereo unspecified)	0.69	.	5.8	.	.	6.4	.
CCN(CC)S(=O)(=O)c1ccc2c(c1)nc(CCC(=O)OCC(=O)N1CCc3ccccc31)n2C	0.69	-7	2.6	.	-1.7	3.8	-3
CC(NC(=O)CN1CCC(C(N)=O)CC1)c1ccccc1 (stereo unspecified)	0.71	4	1.3	.	2.2	0.4	-1
CCOc1ccc2nc(SCC(=O)NC3CCCCC3)[nH]c2c1	0.69	-11	3.0	i	2.1	-1.7	2
COc1ccc(NC(=O)Cn2nnc(-c3ccccc3NC(=O)C3CC3)n2)cc1	0.74	-1	1.9	.	-0.3	-2.1	-52
Cc1cccc(NC(=O)Cn2cnc3c(oc4ccccc43)c2=O)c1C	0.73	-9	2.7	i	-2.4	0.6	2

A second format for some results above:
Cc1ccc2c(c1)N1C(=O)c3ccccc3C1C1=C(CC(C)(C)CC1=O)N2 (stereo unspecified)
  Ecoli growth: 0.74	Beta2AR agonist: 0	LANA-H2B inh: -0.3	FGF22 binding: .	HNF4A DNA FP: -1.2	UCH37 DUB inh: 4.4	ALR inh: 9
COc1ccc(CN2CCNC(=O)C2CC(=O)NCCc2nc(C)c3c(n2)CCC3)cc1C (stereo unspecified)
  Ecoli growth: 0.69	Beta2AR agonist: -2	LANA-H2B inh: 5.3	FGF22 binding: i	HNF4A DNA FP: 3.0	UCH37 DUB inh: -1.8	ALR inh: 6
Cc1ccc(NC(=O)C2CC(=O)n3ncnc3N2)cc1 (stereo unspecified)
  Ecoli growth: 0.73	Beta2AR agonist: 3	LANA-H2B inh: 0.6	FGF22 binding: i	HNF4A DNA FP: 3.4	UCH37 DUB inh: 1.8	ALR inh: 4
CCc1ccc(S(=O)(=O)NCCOc2cccc3cccnc23)cc1
  Ecoli growth: 0.66	Beta2AR agonist: -4	LANA-H2B inh: 5.1	FGF22 binding: i	HNF4A DNA FP: 0.9	UCH37 DUB inh: 0.9	ALR inh: -7

Some of the compounds tested, so the mix of outcomes need not match the whole.
